# NS1 function inh: influenza NS1 inhibition; S. cerevisiae slowed by influenza A NS1, growth recovery by OD600; Potency, µM (top dose mostly 46.1 µM), for inactives: at the highest dose activity, positive = more growth; 270,000 compounds, 0.4% hits; active means well fitted rising curve with a large enough effect; inconclusive means small, poorly fitted or top-dose-only effect; inactive means no such curve, though single readings can be large or run the other way; note: nearly all actives have a fitted effect of over 50% in size
#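 In this qHTS, NS1 from influenza A is expressed in budding yeast, where it slows growth. Cells are switched from glucose to 2% galactose medium (pH 6.0, -URA), treated with compound, and growth recovery is read at OD600.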
# SARS PLP yeast: SARS-CoV PLP inhibition in yeast; Potency, µM (highest dose often 32.9 µM), for inactives: top-dose activity, positive = growth rescue; 330,000 compounds, 0.19% hits; S. cerevisiae expressing SARS-CoV PLpro, growth rescue; control for the full effect not named in the record; AID 485353; active means well fitted rising curve with a large enough effect; inconclusive means small, poorly fitted or top-dose-only effect; inactive means no such curve, though single readings can be large or run the other way; note: 0% is about no effect; nearly all actives have a fitted effect of over 55% in size; growth read by luminescence after 48 h
# LASV entry inh: inhibitors of Lassa virus binding or cell entry. Lassa virus pseudotype entry inhibition, cell reporter; control for the full effect not named in the record. 300,000 compounds, 1.2% hits. Potency, µM (titrated, usually from 37.9 µM), for the others: top-dose activity change, negative = inhibition, most hits filed as inhibitors; active means well fitted inhibition curve with a large enough effect; inconclusive means small, poorly fitted or top-dose-only effect, or effect the other way; inactive means flat fitted curve, though single readings scatter; tested in HEK293 cells; note: % is set by controls: 0 for no effect and ±100 for the full control effect; nearly all actives have a fitted effect of over 50% in size; luciferase read-out
# Cruzain Triton: blocks cruzain activity in presence of Triton detergent; P25779; purified cruzain, Z-FR-AMC fluorescence, 0.01% Triton; Potency, µM, inactives show max response, negative = inhibition, most hits filed as inhibitors; 200,000 compounds, 0.43% hits; AID 1478;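 note: plate controls were neutral wells for no effect and buffer without enzyme for full effect; nearly all actives have a fitted effect of over 40% in size; top concentration of the series not given in the record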
# Target sequence (P25779 123-467 limits assumed): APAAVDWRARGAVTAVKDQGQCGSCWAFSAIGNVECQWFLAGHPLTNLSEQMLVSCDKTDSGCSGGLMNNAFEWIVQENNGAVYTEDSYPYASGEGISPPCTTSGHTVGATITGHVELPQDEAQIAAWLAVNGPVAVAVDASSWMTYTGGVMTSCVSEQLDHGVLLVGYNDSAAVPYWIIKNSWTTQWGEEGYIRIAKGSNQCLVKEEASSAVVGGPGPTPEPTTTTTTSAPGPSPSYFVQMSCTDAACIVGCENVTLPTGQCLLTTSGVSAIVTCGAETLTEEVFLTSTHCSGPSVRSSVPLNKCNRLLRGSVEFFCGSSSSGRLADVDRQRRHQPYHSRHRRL
#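 Steps: dispense cruzain (1.5 nM final) in acetate buffer pH 5.5 with DTT and 0.01% Triton X-100; pin-transfer compounds; incubate 15 min RT; add Z-FR-AMC (2 uM final); read fluorescence every 30 s, using the 60 s intensity change.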
# Cruzain inh noDet: cruzain (T. cruzi) inhibition without detergent. P25779. purified cruzain, Z-FR-AMC fluorescence, no detergent. Potency, µM, inactives show max response, negative = inhibition, usual class: inhibitors. 200,000 compounds, 2.3% hits. AID 1476;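 note: plate controls were enzyme without inhibitor for no effect and buffer without enzyme for full effect; nearly all actives have a fitted effect of over 40% in size; top concentration of the series not given in the record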
#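 Detergent-free condition (0.00005% Triton X-100) in acetate buffer pH 5.5 with DTT. 1.5 nM enzyme and compound were pre-mixed 15 min, then 2 uM Z-FR-AMC substrate added; reaction progress from fluorescence change between first and third reads (60 s).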
# 2A StopGo: FMDV 2A StopGo reporter, luciferase signal. human cells with a luciferase reporter of 2A StopGo recoding; control for the full effect not named in the record. 410,000 compounds, 1.2% hits. Potency, µM (series often up to 57.9 µM), inactives show at the top dose signal change, negative = less light; active = well fitted falling curve with a large enough effect; inconclusive = small, poorly fitted or top-dose-only effect; inactive = no such curve, though single readings can be large or run the other way; tested in HEK293T cells; note: % is set by controls: 0 for no effect and ±100 for the full control effect; nearly all actives have a fitted effect of over 45% in size; luciferase light after 4 h
# MARV entry inh: Marburg virus entry inhibition; Potency, µM (highest dose often 37.8 µM), without a hit: top-dose activity change, negative = inhibition, hits mostly inhibitors; Marburg virus pseudotyped entry inhibition, cell reporter; control for the full effect not named in the record; about a third of the inactives were read at about 46 µM; AID 540276; 300,000 compounds, 1.8% hits; active = well fitted inhibition curve with a large enough effect; inconclusive = small, poorly fitted or top-dose-only effect, or effect the other way; inactive = flat fitted curve, though single readings scatter; tested in HEK293 cells; about a fifth of its hits are not listed in these tables; note: % is set by controls: 0 for no effect and ±100 for the full control effect; luciferase read-out
# RE007 growth inh: less growth of the S. pombe RE007 Vpr strain; AID 651644; S. pombe RE007 Vpr strain, BacTiter-Glo ATP luminescence, 24 h; control for the full effect not named in the record; Potency, µM (top dose mostly 92.2 µM), for the others: top-dose activity change, negative = less growth; 360,000 compounds, 0.21% hits; active = well fitted falling curve with a large enough effect; inconclusive = small, poorly fitted or top-dose-only effect; inactive = no such curve, though single readings can be large or run the other way;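 note: % is set by controls: 0 for no effect and ±100 for the full control effect; nearly all actives have a fitted effect of over 50% in size; the assay follows cell death caused by Vpr and the record does not say whether a fall means rescue or toxicity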
#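 Fission yeast strain RE007, carrying one chromosomally integrated HIV-1 vpr copy, was seeded at OD 0.01 in PMG+AL medium with 23 nL pinned compound. After 24 h at 30 °C and 99% humidity, viability was read by BacTiter-Glo luminescence.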
# * marks the source's active call; other numbers are inactive results; ? = inconclusive; . = no result given; & = joins results of further samples; [ ] = dose if it differs, or a comment. Unless noted, calls come from the whole dose curve; as a rule, active = well fitted curve in the direction sought with a large enough effect; inconclusive = small, poorly fitted or top-dose-only effect, or another doubt; inactive = no such curve, though single readings can be large; an effect the other way counts as inactive or inconclusive. Potency is the fitted concentration of half-maximal effect.
SMILES,NS1 function inh,SARS PLP yeast,LASV entry inh,Cruzain Triton,Cruzain inh noDet,2A StopGo,MARV entry inh,RE007 growth inh
Cc1ccc(Cn2cc(C(=O)c3ccc(F)cc3)c(=O)c3cc4c(cc32)OCCO4)cc1,3%,0%,5%[46.1 µM],-1.1%&-3.8%,11%&-2%,-10%&-28%,-1%[46.1 µM],0%
CCSc1ccccc1C(=O)Nc1cccc(OC)c1,-15%,-15%,-7%,1.9%,-1%,32%[activator],?,?
COCc1cc(=O)n2[nH]c(C)cc2n1,-9%,2%,5%,1.4%,5%,-13%,0%,5%
COc1ccccc1/C=C/CN1CCCCC1,-3%,-2%,0%,.,.,0%,-8%,9%
Cc1[nH]n(-c2ccccc2)c(=O)c1C(c1ccc(C(=O)O)cc1)c1c(C)[nH]n(-c2ccccc2)c1=O,-17%,8%,?,-4.3%,?,-5%,-10%,-2%
COc1ccc(NC(=O)c2cc3c([nH]c2=O)CC(c2ccccc2)CC3=O)cc1 (stereo not given),.,.,22%[46.1 µM],0.5%,12%,7%,.,.
C=CCN(CC=C)c1ncnc2[nH]ncc12,.,.,23%[46.1 µM],.,.,14%,22%[46.1 µM],-18%
Nc1ncnc(Nc2ccccc2Cl)n1,-2%,1%,.,.,.,21%,.,-2%
CCOC(=O)c1c(C)[nH]c(C)c1S(=O)(=O)NC1CCN(C(=O)OCC)CC1,-1%,-7%,.,.,.,-2%,.,-1%
CCO[C@H]1OC(C(=O)O)=C[C@@H](c2ccc(C(F)(F)F)cc2)[C@@H]1CCCO,0%,1%,.,.,.,-10%,.,2%
CCOc1ccccc1OCC(=O)NNC(=S)NC1CCCCC1,-3%,0%,.,.,.,11%,.,20%
CCN(CC(=O)Nc1ccc(NC(C)=O)cc1)CC(=O)Nc1cc(C)on1,.,0%,1%,.,.,-24%,12%,-7%
COc1ccccc1CNC(=O)COc1ccc(S(=O)(=O)N2CCOCC2)cc1,.,-1%,2%,.,.,-9%,2%,-12%
Cc1cccc(C)c1N1CCN(S(=O)(=O)c2ccc(F)cc2)CC1,-54%,-6%,?,4.1%,-13%,?,-29%[46.1 µM],7%
CCOc1cc(N2CCOCC2)c(OCC)cc1NC(=O)Cc1cn2ccsc2n1,-1%,7%,1%,2.1%,7%,-20%,?,9%
Cc1ccc(NC(=O)Cn2cc(C=O)c3ccccc32)cc1C,8%,1%,.,.,.,?,.,3%
Cc1ccc(C)c(C(=O)CCC(=O)Nc2ccc(F)cc2)c1,-5%,-3%,10%,.,.,0%,-24%,39%
N#Cc1c(N)nc2c3c(sc(=N)c2c1N)NC(=O)CC3c1ccccc1Cl (stereo not given),-8%,1%,-27%,4.5%,10%,?,?,9%
CCc1cccc(C)c1NC(=O)Cn1c(NCCO)nc2ccccc21,-3%,12%,2%,1.5%,-9%,-17%,0%,-15%
Cc1cc(Cl)ccc1Oc1nc(-c2ccccc2)ncc1S(C)(=O)=O,-13%,-3%,-12%,3.1%,3%,0%,6%[46.1 µM],-3%
Cc1ccc(S(=O)(=O)/N=C(/Nc2ccccc2C)c2ccccc2)cc1,.,-4%,-7%[46.1 µM],.,.,19%,-14%[46.1 µM],-3%
CCOC(=O)c1ccc2c(c1)C1C=CCC1C(C(=O)O)N2 (stereo not given),4%,-1%,.,?,?,.,-1%,.
COc1ccc(/C(N)=N/OC(=O)c2ccc3c(c2)OCO3)cc1,-29%,-95%,?,-5.0%,5%,17%,7%,-19%
c1ccc(C(Cc2nc(-c3cccnc3)no2)c2ccccc2)cc1,-18%,-5%,-8%,-0.5%,2%,?,?,13%
Cc1cc(C)n(-c2ccc(C(C)C)cc2)c(=O)c1C#N,4%,-1%,-18%,.,.,-16%,0%[46.1 µM],19%
CCC(=NCCN1CCNCC1)C1=C(O)CC(C)(C)CC1=O,1%,-4%,-28%,4.2%,4%,-19%,23%,0%
Cc1ccc(NC(=S)NCC(C)C)cc1,-5%,25%,2%,-0.5%,-4%,47%[activator],1%,.
CCCSc1nc2sc3c(c2c(=O)n1-c1ccccc1)CCC(C)C3 (stereo not given),.,.,?,-1.1%,-5%,-1%,-4%[46.1 µM],.
O=c1[nH]c(CN2CCN(Cc3ccccc3)CC2)nc2scc(-c3ccccc3)c12,7%,3%,?,.,.,-6%,-21%[46.1 µM],-23%
CCOc1ccc(N2CC(C(=O)Nc3ccccc3C(=O)NC3CC3)CC2=O)cc1 (stereo not given),-3%,-1%,-10%,.,.,-2%,6%[46.1 µM],-10%
CCOC(=O)CN1C(=O)N(c2ccc(C)c(C)c2)S(=O)(=O)c2ccccc21,.,.,-12%[46.1 µM],-2.6%,7%,-13%,.,.
COc1ccc(-c2nnc(SCCC(=O)O)n2-c2ccccc2)cc1OC,-5%,1%,8%,2.7%,1%,8%,9%,1%
O=C(Nc1cccnc1)C1CC(=O)N(c2ccc(F)cc2)C1 (stereo not given),22%,1%,27%,.,.,-15%,7%[46.1 µM],-5%
O=S(=O)(Cc1ccccc1)N1CCN(Cc2ccccc2)CC1,-2%,3%,-6%,-5.8%,-15%,-15%,7%,-21%
O=C(COc1ccccc1Cl)NCCc1ccc2c(c1)OCCO2,2%,?,15%,-7.2%,4%,-14%,?,-10%
O=C(N/N=C/c1c(O)n(CCc2ccccc2)c(=O)[nH]c1=O)c1ccncc1,-26%,-9%,11%,-14%,-6%,-11%,4%,.

# Molecules listed so far containing a cyano group, in the order listed:
SMILES,NS1 function inh,SARS PLP yeast,LASV entry inh,Cruzain Triton,Cruzain inh noDet,2A StopGo,MARV entry inh,RE007 growth inh
N#Cc1c(N)nc2c3c(sc(=N)c2c1N)NC(=O)CC3c1ccccc1Cl (stereo not given),-8%,1%,-27%,4.5%,10%,?,?,9%
Cc1cc(C)n(-c2ccc(C(C)C)cc2)c(=O)c1C#N,4%,-1%,-18%,.,.,-16%,0%[46.1 µM],19%

# Additional compounds
SMILES,NS1 function inh,SARS PLP yeast,LASV entry inh,Cruzain Triton,Cruzain inh noDet,2A StopGo,MARV entry inh,RE007 growth inh
Cc1ccc(C(=O)NCc2ccco2)cc1,0%,2%,.,.,.,12%,.,2%
Cn1c(SCCOc2ccccc2Cl)nnc1-c1cccs1,?,-47%,13%,-4.7%,0%,15%,9%,-4%
CCOC(=O)N1CCN(CCC(=O)Nc2ccccc2OC)CC1,5%,?,13%,0.0%,-12%,-2%,19%[46.1 µM],7%
O=C(Nc1cc(Cl)ccc1N1CCOCC1)c1cccnc1Cl,-3%,-3%,-26%,.,.,-16%,-11%,-1%
COc1cc(C(=O)OCCCN2CCCN(CCCOC(=O)c3cc(OC)c(OC)c(OC)c3)CC2)cc(OC)c1OC,-13%,.,?,-5.2%&-3.2%&-3.2%,11%&10%&4%,-15%&-4%,5.2µM*,-9%[18.4 µM]
COc1ccc(C2C(C(=O)N3CCN(C)CC3)c3ccccc3C(=O)N2C2CCCCC2)cc1 (stereo not given),-8%,6%,-6%,1.0%,1%,-12%,1%,-13%
CCN(CC)c1ccc(/C=N/NC(=O)Nc2nonc2N)cc1,0%,-8%,?,-9.9%,-17%,-12%,?,-6%
COc1ccc(NS(=O)(=O)c2ccc(N/N=C/c3ccc(N4CCOCC4)cc3)c([N+](=O)[O-])c2)cc1,10%,7%,?,-4.7%,25µM*,44%[activator],-17%,11%
OCC1CO1 (stereo not given),.,-1%,.,7.2%,-6%,0%,0%,0%
CCOc1ccc(-n2c(C)nc3cc(C(=O)NCCN4CCOCC4)ccc32)cc1,1%,-12%,-20%,-2.9%,0%,12%,-6%,13%
C/C(=N\NC(=S)NC(C)C)c1ccc2c(c1)OCCO2,-12%,?,?,-9.0%,2%,18%,?,-9%
CC1CCCN(CCCNC(=O)CN2C(=O)COc3ccccc32)C1 (stereo not given),12%,-2%,.,.,.,-10%,.,10%
S=C(NCc1ccco1)Nc1ccc(Oc2ccc(Cl)cc2)cc1,-7%,-4%,-6%,.,.,-6%,-20%[46.1 µM],16%
Cc1nn(C)cc1C(=O)Nc1ccc2c(c1)OCCO2,7%,-1%,12%,.,.,-3%,-28%[46.1 µM],5%
COC(=O)c1sc(NC(=O)CCCn2nc([N+](=O)[O-])cc2C)c(C(=O)OC)c1C,5%,-1%,4%,-3.2%,26%,-12%,4%,2%

# Entries of single compounds, quoted from the list:
# Listed for C/C(=N\NC(=S)NC(C)C)c1ccc2c(c1)OCCO2 = NS1 function inh = -12%; SARS PLP yeast = ?; LASV entry inh = ?; Cruzain Triton = -9.0%; Cruzain inh noDet = 2%; 2A StopGo = 18%; MARV entry inh = ?; RE007 growth inh = -9%
# Listed for COc1ccc(C2C(C(=O)N3CCN(C)CC3)c3ccccc3C(=O)N2C2CCCCC2)cc1 (stereo not given) = NS1 function inh = -8%; SARS PLP yeast = 6%; LASV entry inh = -6%; Cruzain Triton = 1.0%; Cruzain inh noDet = 1%; 2A StopGo = -12%; MARV entry inh = 1%; RE007 growth inh = -13%

# Assay outcomes from PubChem BioAssay.
